Sa ugtP lethal = growth inhibition of ugtP-null S. aureus, primary screen, RN4220 ugtP deletion, OD600. 16 h; some inactives read as strong as hits. actives 0.54% (n = 330,000). AID 1259309, 2017. growth inhibition, % (concentration not given with the values);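 active = z-score under -3 and OD600 up to 0.15 on both plates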;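 note: plate controls were untreated wells for no effect and antibiotic for full effect; wells of about 80 µL received 100 nL stock; the first replicate is given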
PrP 5UTR inh = inhibition of PrP 5' UTR reporter expression | cell-based PrP 5' UTR mRNA reporter, plate reader | actives 0.35% (n = 340,000) | inhibition, % (concentration not given with the values);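 active = every replicate at 50% or more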;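 note: 0 = median of the neutral control wells; tested in H4 reporter cells; numbers are from one replicate; inactives centre near -14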
Mtb hypoxia rep = PubChem AID 1159583. M. tuberculosis hypoxia-regulated fluorescent reporter, fluorescence. fluorescence inhibition, % (no concentration beside the values). actives 0.1% (n = 300,000);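 active = 35 to 45% if threefold the growth effect, above 45% if 1.5-fold the growth effect; inactive = the rest, general growth blockers included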;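 note: wells of about 50 µL received 100 nL stock; 0% = vehicle wells and 100% = reference inhibitor wells; whole bacteria with a GFP reporter of the hypoxia response; strong numbers were not always called active; many hits fall short of the cut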
Sa RN4220 lethal = growth inhibition of S. aureus RN4220, primary screen, OD600; 16 h; inhibition, % (test concentration not listed); actives 0.33% (n = 330,000);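 active = z-score of -3 or lower and OD600 up to 0.18 on both plates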;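 note: plate controls were untreated cells for no effect and reference antibiotic for full effect; stock transfer was 100 nL into about 80 µL; one replicate is shown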
BJeLR lethal = MLPCN primary cell-based screen for lethality selective to Ras in HRASV12 cells | inhibition, % (test concentration not listed) | BJeLR (HRASV12) viability, CellTiter-Glo ATP luminescence, 48 h; reference of the scale not given here | actives 0.17% (n = 300,000);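 active = replicate mean above 50%; inconclusive = above 50% but judged a plate artefact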;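 note: 50 nL library stock added to about 25 µL; numbers are from one replicate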
Bead autofluor = compound fluorescence in toxin protease inhibitor counterscreen | compound autofluorescence counterscreen, microsphere flow cytometry; stronger effect = higher value | fluorescence intensity (no concentration beside the values) | actives 3.1% (n = 360,000) | AID 624483;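 active = at least 3 SD above the mean of all compounds, about 16000 in these data; inconclusive = too few beads counted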;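 note: 100 nL of 1 mM stock went into each well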
Mtb hypoxia rep growth = also measured in Mtb hypoxia rep; calls as there; growth inhibition, %; measured here: M. tuberculosis growth (absorbance);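 0% = vehicle and 100% = reference antibiotic; read after six days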
* marks the source's active call; other numbers are inactive results; ? = inconclusive; . = no result given; & = joins results of further samples. Compounds were not picked by outcome. About 3.9% of those tested had a hit in this group.

The opening six records, to show the layout:
SMILES	Sa ugtP lethal	PrP 5UTR inh	Mtb hypoxia rep	Mtb hypoxia rep growth	Sa RN4220 lethal	BJeLR lethal	Bead autofluor
COc1ccccc1CN1C[C@@H]2C[C@@H](c3cccc(C)c3)N3CCC[C@@]23C1=O	6	-20	8	12	0.3	3	8273
CCOc1ccccc1N(CC(=O)Nc1ccc(S(=O)(=O)N2CCOCC2)cc1)S(=O)(=O)c1ccc(Cl)cc1	-3	-33	-1	1	2.8	5	2122
COc1ccc(CCc2nnc(NS(C)(=O)=O)s2)cc1	11	-13	12	3	1.0	6	3504
CC(C)CC(=O)OC1C(N2CCOCC2)c2c(ccc(/C=C/C(=O)N3CCOCC3)c2O)OC1(C)C (stereo not given)	7	-26&-11	7	15	4.9	2	10329
NC1=NC(=O)C2(COC(c3ccccc3Cl)OC2)S1 (stereo not given)	-2	-12	10	6	3.0	-5	9919
COc1cc(C(=O)NCc2nnc(SCC(=O)c3ccc(Cl)cc3)o2)cc(OC)c1OC	6	-20	-5	0	5.7	-5	5111

This part in full, from the first entry:
SMILES	Sa ugtP lethal	PrP 5UTR inh	Mtb hypoxia rep	Mtb hypoxia rep growth	Sa RN4220 lethal	BJeLR lethal	Bead autofluor
COc1ccccc1CN1C[C@@H]2C[C@@H](c3cccc(C)c3)N3CCC[C@@]23C1=O	6	-20	8	12	0.3	3	8273
CCOc1ccccc1N(CC(=O)Nc1ccc(S(=O)(=O)N2CCOCC2)cc1)S(=O)(=O)c1ccc(Cl)cc1	-3	-33	-1	1	2.8	5	2122
COc1ccc(CCc2nnc(NS(C)(=O)=O)s2)cc1	11	-13	12	3	1.0	6	3504
CC(C)CC(=O)OC1C(N2CCOCC2)c2c(ccc(/C=C/C(=O)N3CCOCC3)c2O)OC1(C)C (stereo not given)	7	-26&-11	7	15	4.9	2	10329
NC1=NC(=O)C2(COC(c3ccccc3Cl)OC2)S1 (stereo not given)	-2	-12	10	6	3.0	-5	9919
COc1cc(C(=O)NCc2nnc(SCC(=O)c3ccc(Cl)cc3)o2)cc(OC)c1OC	6	-20	-5	0	5.7	-5	5111
CCSc1nnc(NC(=O)C(NC(=O)c2cccc(C)c2)C(C)C)s1 (stereo not given)	-7	.	4	3	5.7	.	.
c1ccc(-n2nnnc2OCCOc2nnnn2-c2ccccc2)cc1	-1	-4	-1	8	8.7	-23	9467
CC(C)c1ccc(NC(=O)C2CCN(S(=O)(=O)c3ccc4c(c3)NC(=O)CO4)CC2)cc1	-9	-15	-7	4	-4.5	-4	5254
CC1(C)SCC2C(=O)N3C(CSC3(C)C)C(=O)N21 (stereo not given)	-1	0	9	5	8.3	-4	4166
CC(=O)Nc1ccc(NC(=O)c2ccccc2S(=O)(=O)c2ccc([N+](=O)[O-])cc2)cc1	6	-16	4	-2	9.5	-1	2186
CSc1nc(C)c(CCOC(=O)c2cccc(Cl)c2)c(=O)[nH]1	1	-9	-3	1	-1.4	3	3372
Cc1ccc(C)c(SCC(=O)NC2CCS(=O)(=O)C2)c1 (stereo not given)	3	-18	6	2	2.5	.	6025
Cc1ccc(CSc2nnc(-c3cccs3)n2C)cc1	-1	-36	.	.	8.8	-1	13667
COC(=O)C1=NN(c2ccccc2)C2(S1)SC(C(C)=O)=C(C)N2c1ccccc1 (stereo not given)	-16	2	1	6	-6.1	-1	4177
NC(N)=NS(=O)(=O)c1ccc(NC(=S)NC(=O)c2ccc3c(c2)OCO3)cc1	15	-36	-7	8	3.5	2	5776
Cc1ccc(C(=O)Cn2c(C(=O)O)cc3ccccc32)cc1	-8	-25	-7	-23	-7.0	-1	3283
CCCCCOC(=O)Cn1c(=O)oc2ccc(C)cc21	-3	-19	2	-4	6.8	1	2536
CON(c1nc(Cl)nc(N(C)C)n1)S(=O)(=O)c1ccccc1Cl	-2	-33	-8	7	9.8	7	2839
COc1cccc(NC(=O)Cc2nnc(SCCOc3ccccc3)n2C)c1	1	-42	.	.	-3.4	-7	3812
Cn1c2c(c(=O)c3ccccc31)CCCC2	5	-18	7	-4	3.5	-2	3233
CCc1nc2ccc(C(=O)NCCc3ccccc3OC)cc2nc1CC	9	-17	3	4	7.8	2	5891
O=C(CSc1nnc(CNc2ccc(F)cc2)n1CC1CCCO1)N1CCOCC1 (stereo not given)	11	-30	4	1	1.5	-11	3054
CCCCN(C)C(=O)c1nc2ccccn2c1CN1CCN(c2ncccn2)CC1	4	-3	15	5	0.8	-9	1925
COc1cccc(-c2ccc(=O)n(CC(=O)Nc3ccc(C(=O)N4CCCC4)cc3)n2)c1	-9	7	-6	8	-1.4	3	4195
Cc1ccccc1-n1c(SCc2cc(=O)n3ccccc3n2)nc2[nH]ncc2c1=O	2	-12	11	4	9.8	7	2857
Cn1nc(C(F)(F)F)c(-c2ccc(F)cc2)c1NC(=O)c1cccnc1	-8	-16	-6	-12	0.9	5	4346
COC(=O)c1ccc(/C=C(\C#N)c2nc3ccccc3s2)cc1	13	-28	-5	-1	29	-1	2567
Cc1[nH]n(-c2ccc([N+](=O)[O-])cc2)c(=O)c1C=NCCc1c(C)[nH]c2ccccc12	-11	-6	-1	2	-1.6	10	1994
CCCn1cnnc1CNC(=O)C1CCC(=O)N(CCCc2ccccc2)C1 (stereo not given)	-1	-10	-1	3	1.1	1	5441
COC(=O)CN1C(=O)CC(C)(C)S(=O)c2ccccc21 (stereo not given)	2	-13	.	.	8.8	0	5320
Cc1nnc2ccc(-c3cccc(NC(=O)Cc4cccs4)c3)nn12	18	-15	4	12	3.9	16	4518
CCOc1ccccc1NC(=O)CN1C(=O)COc2ccccc21	11	-27	11	-2	4.4	-3	3680
O=c1c2ccccc2nc(-c2cccs2)n1-c1cccc2ccccc12	17	-28	-1	2	2.5	1	2017
C=CCOn1c(=O)c(-c2ccc(Br)cc2)[n+]([O-])c2ccccc21	13	-15	5	0	-0.8	7	2938
COc1ccc(N2CCN(S(=O)(=O)CCNC(=O)c3ccco3)CC2)cc1	-2	-16	-10	-10	1.0	0	.
CC(=O)c1cccc(NC(=O)c2ccc(N(C)S(C)(=O)=O)cc2)c1	-6	11	.	.	-1.9	-6	2112
CCn1c(CC(=O)Nc2ccccc2)nnc1SCC(=O)N1CCOCC1	-3	-13	10	18	1.5	-3	6499
COc1ccc(C(=O)Nc2cc3c4c(c2)CC(=O)N4CCC3)cc1	-4	-4	-2	6	-4.1	3	.
c1ccc(NC2=NCCN2CC2CCCCCC2)cc1	-8	-6	11	4	3.5	.	3782
Cc1ccc(C)c(OCCn2cc(/C=C(\C#N)C(=O)NCc3ccco3)c3ccccc32)c1	-3	-44	3	0	-0.5	-3	2568
Cc1ccc(SCC(=O)N2CC(C)OC(C)C2)cc1 (stereo not given)	7	-31	4	1	4.6	-5	7309
CCC(C)c1c(O)nc(SCC(=O)c2ccccc2)[nH]c1=O (stereo not given)	3	-27	-8	2	3.5	-7	10777
Cc1c(Cl)cccc1NC(=O)CNC(=O)Cc1n[nH]c(=O)c2ccccc12	4	-30	6	2	1.3	.	4222
COc1cccc(N2CCN(CC(=O)Nc3ccc(S(=O)(=O)N4CCCCCC4)cc3)CC2)c1	-4	-9	1	-3	3.0	.	.
CSc1ccc(Cn2nnc(C(=O)NCc3ccccc3)c2N)cc1	-3	-30	.	.	-1.3	-5	5318
Cc1ccc(C)c(N2CC(C(=O)O)CC2=O)c1 (stereo not given)	-6	-20	-3	-1	0.9	9	3225
CCOC(=O)CSc1nc2c(sc(=S)n2-c2ccccc2)c(=O)n1-c1ccc(OC)cc1OC	-6	-9	1	0	-8.9	-2	3101

Quoted at random: 7 entries already listed.
SMILES	Sa ugtP lethal	PrP 5UTR inh	Mtb hypoxia rep	Mtb hypoxia rep growth	Sa RN4220 lethal	BJeLR lethal	Bead autofluor
CCn1c(CC(=O)Nc2ccccc2)nnc1SCC(=O)N1CCOCC1	-3	-13	10	18	1.5	-3	6499
COc1ccc(C(=O)Nc2cc3c4c(c2)CC(=O)N4CCC3)cc1	-4	-4	-2	6	-4.1	3	.
COc1cccc(N2CCN(CC(=O)Nc3ccc(S(=O)(=O)N4CCCCCC4)cc3)CC2)c1	-4	-9	1	-3	3.0	.	.
CC(=O)c1cccc(NC(=O)c2ccc(N(C)S(C)(=O)=O)cc2)c1	-6	11	.	.	-1.9	-6	2112
Cc1ccc(C)c(OCCn2cc(/C=C(\C#N)C(=O)NCc3ccco3)c3ccccc32)c1	-3	-44	3	0	-0.5	-3	2568
Cc1ccc(SCC(=O)N2CC(C)OC(C)C2)cc1 (stereo not given)	7	-31	4	1	4.6	-5	7309
Cc1ccc(C)c(N2CC(C(=O)O)CC2=O)c1 (stereo not given)	-6	-20	-3	-1	0.9	9	3225

Other entries
SMILES	Sa ugtP lethal	PrP 5UTR inh	Mtb hypoxia rep	Mtb hypoxia rep growth	Sa RN4220 lethal	BJeLR lethal	Bead autofluor
CCC(=O)c1ccc(O)cc1	0	-12	5	3	4.0	10	5950
C/C(=N\NC(=O)c1ccc(C)cc1C)c1ccc(-n2ccnc2)cc1	.	-24	.	.	.	-2	2087
Cc1ccc(NC(=O)CCNC(=O)c2ccccc2Cl)nc1	3	-12	7	-11	-1.4	-2	5749
COc1ccc(CCNCC(=O)Nc2ccc(OC(F)F)cc2)cc1	8	-9	4	7	-2.3	-2	3480
N/C(=N\OC(=O)CCc1ccccc1)c1ccc(Br)cc1	18	-26	11	5	3.5	4	5748
CN1CCN(Cc2nc(-c3cccs3)no2)CC1c1ccccc1 (stereo not given)	17	-24	-1	13	-1.6	12	2559
Cc1ccc(N(CC(=O)N/N=C/c2cccs2)S(C)(=O)=O)cc1Cl	.	-12	.	.	.	-5	4618
COc1ccccc1NC(=O)COC(=O)CCC1CCCC1	12	-5	3	0	5.8	.	2834
CN(C(=O)c1cccc(NC(=O)Cc2ccc(NC(=O)C3CCN(C(=O)c4ccccc4)CC3)cc2)c1)C1CCCCC1	-1	-17	-6	-2	3.9	.	2798
COc1ccc(S(=O)(=O)N2CCCCCC2)cc1N	3	-4	-4	4	5.3	1	3339
COc1ccc(CN2CCNC(=O)C2CC(=O)NCCSc2nccn2C)cc1OC (stereo not given)	5	-30	-7	1	2.2	2	2296
COc1ccc(/C=N/OC(=O)Nc2ccccc2OC)cc1	.	-123	.	.	.	29	3457
COc1ccc(-c2cc(-c3c(O)c(OC)c4occc4c3OC)[nH]n2)cc1OC	-8	-24	3	7	9.8	5	6685
CSC(=Nc1ccccc1)c1c(O)n(C)c(=O)n(C)c1=O	7	-22	8	1	3.1	5	11075
Cc1ccc(C)c(C(=O)CSc2nc3ccccc3c(=O)[nH]2)c1	-7	-25	4	2	1.9	-6	4153
CCCOc1ccc(/C=N/Nc2ccc(C(=O)O)cc2)c(OCCC)c1	.	-54	.	.	.	1	4021
COC(=O)c1sccc1-c1ccc(C=NOC(=O)c2cccs2)o1	13	.	12	10	9.6	.	.
CCN(CC(=O)N1CCOCC1)S(=O)(=O)c1ccc(C)cc1	1	-6	.	.	-3.3	4	2602
C/C(Cn1nnc2ccccc21)=N\NC(=O)c1cccc(Br)c1	.	-26	.	.	.	4	2477
COC(=O)c1ccc(C)c(NC(=O)c2c(-c3ccccc3)noc2C)c1	0	-1	12	8	4.5	0	10976
C/C(C=O)=C/c1ccccc1	0	-11	9	4	3.7	.	5541
C=C(C)C1CC=C(C)C(=NNC(=O)CNc2ccccc2OC)C1 (stereo not given)	1	.	2	-9	0.8	.	.
COc1ccc(NC(=O)c2cc(C3CC3)on2)c(OC)c1	0	-33	4	3	-5.7	-10	6128
Cc1ccc(S(=O)(=O)N=C(c2ccc(F)cc2)n2c(C)nc3ccccc32)cc1	-4	.	-2	3	-18	.	.
c1coc(CNc2nc3sc4c(c3c3ncnn23)CCCC4)c1	4	-7	.	.	5.5	-2	2140
COc1cc2c(cc1NC(=O)COc1ccc3ccccc3c1)oc1ccccc12	-16	-1	-6	16	-0.9	-4	?
CCN(CC(=O)NCc1cccs1)C(=O)c1cccc(S(=O)(=O)Nc2ccccc2Cl)c1	-3	-17	-2	-6	2.1	-2	.
O=C(/C=C/c1ccc(F)cc1)NCCC1=CCCCC1	-3	-60	10	17	-7.1	8	23985*

Screening data from PubChem BioAssay.
